Vaccinia inh: blocks a specific stage of Vaccinia orthopoxvirus infection; Vaccinia-infected cells, mCherry/Venus stage reporter fluorescence; hits give low values; some inactives read as strong as hits; activity change (mCherry), % (test concentration not listed); actives 0.01% (n = 89,000); AID 1053133;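 active means mCherry past -33% and 40 or more points under the early reporter, replicates agreeing; inconclusive means past -33% without that gap or agreement; tested in A549 cells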;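 further: scaled between vehicle wells and reference inhibitor wells; 23 nL library stock went into each well; one replicate is shown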
Vaccinia inh Venus: recorded beside Vaccinia inh, whose call it bears; activity change (Venus), %; measured here: Venus reporter, other viral stage;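 negative = less Venus signal; first of two replicates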
An asterisk follows results filed as active; u = inconclusive; x = no result given. An excerpt. The share of hits here may be higher or lower than overall.

SMILES	Vaccinia inh	Vaccinia inh Venus
CN1C[C@H](O)COC[C@H]2O[C@H](CC(=O)N3CCN(c4ccccc4)CC3)CC[C@@H]21	22.0	15.6
CN(C)C(=O)C[C@@H]1C[C@@H]2c3cc(NS(=O)(=O)c4ccccc4)ccc3O[C@@H]2[C@@H](CO)O1	5.8	4.0
O=C(C[C@H]1CC[C@H]2[C@@H](COC[C@@H](O)CN2CCc2ccccc2)O1)NCc1ccc(F)cc1	-5.6	-6.4
C[C@@H]1CN([C@H](C)CO)S(=O)(=O)c2ccc(C#Cc3ccncc3)cc2O[C@H]1CN(C)S(=O)(=O)c1ccccc1	u	x
O=C(O)C[C@H]1CC[C@H](NC(=O)c2ccncc2)[C@H](CO)O1	3.8	4.3
CO[C@H]1CN(C)C(=O)c2ccc(NC(=O)C3CCCC3)cc2OC[C@@H](C)N(C(=O)CC2CC2)C[C@@H]1C	2.0	9.5
O=C(C[C@@H]1CC[C@@H]2[C@H](COC[C@@H](O)CN2S(=O)(=O)c2ccc(Cl)cc2)O1)NCCN1CCCC1	2.7	5.6
C[C@@H]1CN([C@H](C)CO)C(=O)c2cc(C3=CCCCC3)cnc2O[C@H]1CN(C)Cc1ccc(C(=O)O)cc1	17.6	7.6
COCC(=O)Nc1ccc2c(c1)OC[C@@H](C)N(Cc1cccc(F)c1)C[C@@H](C)[C@@H](OC)CN(C)C2=O	-22.3	-8.5
CO[C@H]1CN(C)C(=O)c2ccc(NC(=O)Nc3ccccc3F)cc2OC[C@@H](C)N(CC2CC2)C[C@H]1C	-0.1	7.2
Cn1cnc(S(=O)(=O)N[C@H]2CC[C@H](CC(=O)N3CCN(c4ccccc4)CC3)O[C@H]2CO)c1	2.9	8.6
COc1cccc(-c2ccc([C@H]3[C@@H](C#N)N(C(=O)Cc4ccccc4)[C@@H]3CO)cc2)c1	-13.6	-2.1
COCC(=O)N(C)C[C@@H]1Oc2ncc(/C=C/c3ccccc3)cc2C(=O)N([C@H](C)CO)C[C@H]1C	9.7	1.9
COc1cccc(-c2cnc3c(c2)C(=O)N([C@@H](C)CO)C[C@H](C)[C@@H](CN(C)C(=O)CC2CC2)O3)c1	-5.4	-8.0
O=C(C[C@@H]1C[C@H]2c3cc(NC(=O)C4CCC4)ccc3O[C@H]2[C@H](CO)O1)NCc1cccnc1	40.0	19.6
COCC(=O)Nc1ccc2c(c1)C(=O)N(C)C[C@H](OC)[C@@H](C)CN(Cc1ccccc1OC)[C@H](C)CO2	-1.8	-13.2
Cc1ccc(S(=O)(=O)Nc2ccc3c(c2)C(=O)N([C@@H](C)CO)C[C@@H](C)[C@@H](CN(C)C(=O)C2CCCCC2)OCCCC[C@@H](C)O3)cc1	u	x
CCS(=O)(=O)Nc1ccc2c(c1)C(=O)N(C)C[C@@H](OC)[C@@H](C)CN(Cc1ccccn1)[C@@H](C)CO2	14.3	13.1
O=C(c1cnccn1)N1CC(=O)N2[C@H](CO)[C@H](c3ccc(C#CC4CCCCC4)cc3)[C@H]2C1	u	x
COc1cccc(NC(=O)N[C@H]2CC[C@@H](CC(=O)NCc3ccncn3)O[C@@H]2CO)c1	-3.9	2.8
O=C(NCc1ccccc1)[C@@H]1[C@@H](CO)[C@@H]2Cn3c(cccc3=O)[C@H]1N2C(=O)CC1CC1	3.7	-0.2
Cc1ccc(S(=O)(=O)NCC[C@@H]2CC[C@@H](NS(=O)(=O)c3ccccc3Cl)[C@@H](CO)O2)cc1	-10.7	-6.9
O=C(C[C@H]1C[C@H]2c3cc(NC(=O)Nc4ccccc4F)ccc3O[C@H]2[C@H](CO)O1)NC1CCCC1	2.6	9.4
CO[C@H]1CN(C)C(=O)c2cc(NS(=O)(=O)c3ccc(-c4ccccc4)cc3)ccc2OC[C@@H](C)NC[C@@H]1C	u	x
COc1ccccc1C(=O)Nc1ccc2c(c1)OC[C@H](C)N(C)C[C@H](C)[C@@H](OC)CN(C)C2=O	-9.9	-10.4
Additional compounds.
SMILES	Vaccinia inh	Vaccinia inh Venus
Cc1ccc(S(=O)(=O)N(C)C[C@H]2Oc3ccc(NC(=O)CCC(F)(F)F)cc3C(=O)N([C@@H](C)CO)C[C@H]2C)cc1	-8.2	-5.8
C[C@H](CO)N1C[C@H](C)[C@@H](CN(C)Cc2cncnc2)Oc2ncc(C#CC3CCCCC3)cc2C1=O	9.0	9.4
CO[C@@H]1CN(C)C(=O)c2ccc(NS(C)(=O)=O)cc2OC[C@@H](C)N(C(=O)C2CC2)C[C@@H]1C	8.2	9.5
COc1ccc2c3c(n(C)c2c1)[C@@H](CO)NCC31CCN(CC2CC2)CC1	-27.4	-18.9
CC(=O)N(C)C[C@H]1[C@@H](c2ccc(C#CC(C)C)cc2)[C@@H](CO)N1C(=O)C1CCC1	-3.2	5.4
O=C(CC1CC1)N1CC2(C1)[C@@H](c1ccccc1)[C@H](CO)N2C(=O)c1cnccn1	5.6	11.1
O=C([C@H]1[C@H](CO)[C@H]2Cn3c(ccc(C4=CCCCC4)c3=O)[C@@H]1N2)N1CCCCC1	17.4	8.1
C[C@@H]1CCCCO[C@H](CN(C)C(=O)Nc2cccc3ccccc23)[C@@H](C)CN([C@H](C)CO)C(=O)c2cc(NC(=O)c3ccccc3)ccc2O1	13.8	25.2
C[C@H](NC(=O)C[C@H]1CC[C@@H](NC(=O)Nc2ccc3c(c2)OCO3)[C@@H](CO)O1)c1ccccc1	-3.8	-1.7
Cc1noc(C)c1S(=O)(=O)N(C)C[C@H]1OCCCC[C@H](C)Oc2ccc(NC(=O)Nc3ccccc3)cc2C(=O)N([C@@H](C)CO)C[C@@H]1C	-24.1	-8.0
C[C@@H](O)C#Cc1cnc2c(c1)C(=O)N([C@@H](C)CO)C[C@H](C)[C@@H](CN(C)Cc1cccc(C(=O)O)c1)O2	9.7	1.7
COc1ccc(C#Cc2ccc3c(c2)[C@@H]2[C@@H](CCN2S(=O)(=O)c2cccc(OC)c2)[C@H](CO)N3)cc1	-21.8	-11.8
O=C(N[C@@H]1CC[C@@H](CCNC(=O)C2CCC2)O[C@@H]1CO)c1ccncc1	2.1	-1.1
COc1ccc(NC(=O)N(C)C[C@H]2OCCCC[C@H](C)Oc3ccc(NC(=O)Nc4c(C)noc4C)cc3C(=O)N([C@@H](C)CO)C[C@@H]2C)cc1	6.3	-1.6
C[C@@H]1CN([C@H](C)CO)C(=O)c2cc(NS(=O)(=O)c3ccccc3)ccc2O[C@@H](C)CCCCO[C@H]1CN(C)C(=O)c1ccccc1	-15.7	-15.9
C[C@@H]1CN([C@@H](C)CO)C(=O)Cc2cc(NC(=O)CCCCCC(=O)Nc3ccccc3N)ccc2O[C@H]1CN(C)S(C)(=O)=O	-0.5	-6.0
C[C@@H]1CN([C@@H](C)CO)C(=O)c2cc(NC(=O)Nc3ccc4c(c3)OCO4)ccc2O[C@@H]1CN(C)CC1CCCCC1	-17.8	-4.3
COc1ccc(S(=O)(=O)Nc2ccc3c(c2)C(=O)N([C@@H](C)CO)C[C@H](C)[C@@H](CN(C)C(=O)Nc2ccc4c(c2)OCO4)OCCCC[C@@H](C)O3)cc1	-32.0	-21.9
CCCNC(=O)[C@@H]1[C@@H](CO)[C@@H]2Cn3c(cccc3=O)[C@@H]2N1C(=O)CC1CC1	5.0	3.5
CCC(=O)N1[C@@H](CO)[C@@H](c2ccccc2)C12CN(Cc1cc(F)ccc1F)C2	7.7	11.3
C[C@H](CO)N1C[C@H](C)[C@@H](CN(C)Cc2ccccc2F)Oc2cc(C3=CCCCC3)ccc2S1(=O)=O	u	x
O=C(C[C@@H]1CC[C@@H](NC(=O)C2CCC2)[C@@H](CO)O1)NCc1ccncc1	-0.9	-2.9
O=C(c1ccncc1)N1CCCCN2[C@H](C1)[C@@H](c1ccc(-c3ccccc3)cc1)[C@@H]2CO	0.0	-4.8
C[C@@H]1CCCCO[C@@H](CN(C)Cc2ccccc2)[C@@H](C)CN([C@H](C)CO)C(=O)c2cc(NC(=O)CCCCCC(=O)Nc3ccccc3N)ccc2O1	-2.0	0.6
C[C@H](CO)N1C[C@H](C)[C@@H](CN(C)CC2CCOCC2)Oc2cc(C#C[C@@H](C)O)ccc2S1(=O)=O	7.9	6.7
(listing goes on)
SMILES	Vaccinia inh	Vaccinia inh Venus
COCC#Cc1cnc2c(c1)C(=O)N([C@H](C)CO)C[C@@H](C)[C@@H](CN(C)C(=O)Nc1c(C)noc1C)O2	2.8	2.6
C[C@H](NC(=O)C[C@H]1CC[C@H]2[C@H](COc3ccc(NS(=O)(=O)c4ccc(Cl)cc4)cc3C(=O)N2C)O1)c1ccccc1	-19.7	-12.2
C[C@@H]1CCCCO[C@H](CN(C)C(=O)Cc2ccccc2)[C@H](C)CN([C@H](C)CO)C(=O)c2cc(NS(=O)(=O)c3cccs3)ccc2O1	-26.1	-22.9
CO[C@H]1CN(C)C(=O)c2ccc(NC(=O)c3cnccn3)cc2OC[C@H](C)N(C(C)=O)C[C@@H]1C	7.2	6.1
C[C@H](NC(=O)C[C@H]1CC[C@@H](NC(=O)C2CCOCC2)[C@H](CO)O1)c1ccccc1	11.3	4.2
CO[C@@H]1CN(C)C(=O)c2cc(NC(C)=O)ccc2OC[C@H](C)N(C(=O)CC2CC2)C[C@@H]1C	8.4	6.5
O=C(C[C@@H]1C=C[C@H](NS(=O)(=O)c2ccccc2)[C@@H](CO)O1)N1CCC(Cc2ccccc2)CC1	-14.9	-13.9
C[C@@H]1CN([C@H](C)CO)C(=O)c2cccc(NC(=O)c3cnccn3)c2O[C@@H]1CN(C)CC1CCCCC1	-9.0	-3.7
COc1ccc(C#Cc2ccc([C@H]3[C@H](CO)N4C(=O)CN(C(=O)Nc5ccccc5F)C[C@@H]34)cc2)cc1	20.9	1.3
Cc1cccc(S(=O)(=O)N(C)C[C@@H]2OCc3ccccc3-c3ccccc3C(=O)N([C@@H](C)CO)C[C@H]2C)c1	-16.8	-22.0
C[C@H]1CN([C@@H](C)CO)C(=O)c2cc(NC(=O)Cc3ccccc3)ccc2O[C@@H]1CN(C)CC1CCCCC1	3.4	0.6
COCC#Cc1ccc2c(c1)O[C@H](CN(C)Cc1cccnc1)[C@H](C)CN([C@@H](C)CO)S2(=O)=O	12.8	-5.2
O=C(CC1CC1)N1CC(=O)N2[C@H](C1)[C@@H](c1ccc(/C=C/c3ccccc3)cc1)[C@@H]2CO	-11.9	-7.9
O=C(C[C@H]1C=C[C@H](NC(=O)C2CCOCC2)[C@@H](CO)O1)NCC1CCCCC1	1.2	0.2
CCC(=O)N1CCCCN2[C@H](C1)[C@@H](c1ccc(C#Cc3ccccc3)cc1)[C@@H]2CO	u	x
C[C@H](CO)N1C[C@H](C)[C@@H](CN(C)C(=O)Nc2ccc3c(c2)OCO3)Oc2ccc(NC(=O)Nc3ccc4c(c3)OCO4)cc2C1=O	24.1	16.3
C[C@H]1CN([C@@H](C)CO)C(=O)c2cc(NC(=O)Nc3cccc4ccccc34)ccc2O[C@H]1CN(C)S(=O)(=O)c1cn(C)cn1	24.0	7.4
C[C@@H]1CN([C@@H](C)CO)C(=O)c2cc(C#Cc3ccncc3)cnc2O[C@H]1CN(C)CC1CCCC1	2.9	11.4
CCCNC(=O)C[C@@H]1CC[C@H]2[C@@H](COC[C@@H](O)CN2C(=O)c2cc(Cl)cc(Cl)c2)O1	7.6	15.7
C[C@H](O)C#Cc1ccc2c(c1)O[C@H](CN(C)C(=O)Cc1ccccn1)[C@H](C)CN([C@H](C)CO)S2(=O)=O	10.7	3.3
N#C[C@@H]1[C@H](c2ccccc2C2=CCCC2)[C@@H](CO)N1C(=O)CN1CCOCC1	17.4	5.1
CN(C)CC(=O)N[C@@H]1CC[C@H](CC(=O)NCc2ccccc2F)O[C@H]1CO	3.9	4.2
CCC(=O)Nc1ccc2c(c1)OC[C@@H](C)N(C(=O)CN(C)C)C[C@@H](C)[C@H](OC)CN(C)C2=O	4.2	9.9
C[C@H]1CN([C@@H](C)CO)C(=O)Cc2cc(NC(=O)Nc3ccc(C(F)(F)F)cc3)ccc2O[C@H]1CN(C)Cc1ccc(C(=O)O)cc1	3.3	14.1
COCC(=O)N1[C@@H](C#N)[C@H](c2ccc(-c3cccc(F)c3)cc2)[C@@H]1CO	0.9	-3.4
COc1ccc(CN2C[C@H](O)COC[C@@H]3O[C@@H](CC(=O)N(C)C)CC[C@H]32)cc1	19.2	10.3
COc1ccc(S(=O)(=O)Nc2ccc3c(c2)C(=O)N([C@H](C)CO)C[C@H](C)[C@H](CN(C)S(=O)(=O)c2ccc(C)cc2)OCCCC[C@H](C)O3)cc1	u	x

Screening results as filed in PubChem.
